TRPV1 PAM = enhances activation of the human vanilloid receptor TRPV1; TRPV1-expressing cells, Fluo-8 calcium influx, capsaicin EC20 potentiation; host cell line not named in the record; control for the full effect not named in the record; potentiation, % at 8.33 µM; 0.02% of 320,000 active; AID 540277; active means potentiation above 80%; inconclusive means 30% to 80%; inactive means below 30%; also: 0% is about no effect
Target sequence (Q8NER1 whole entry, looked up): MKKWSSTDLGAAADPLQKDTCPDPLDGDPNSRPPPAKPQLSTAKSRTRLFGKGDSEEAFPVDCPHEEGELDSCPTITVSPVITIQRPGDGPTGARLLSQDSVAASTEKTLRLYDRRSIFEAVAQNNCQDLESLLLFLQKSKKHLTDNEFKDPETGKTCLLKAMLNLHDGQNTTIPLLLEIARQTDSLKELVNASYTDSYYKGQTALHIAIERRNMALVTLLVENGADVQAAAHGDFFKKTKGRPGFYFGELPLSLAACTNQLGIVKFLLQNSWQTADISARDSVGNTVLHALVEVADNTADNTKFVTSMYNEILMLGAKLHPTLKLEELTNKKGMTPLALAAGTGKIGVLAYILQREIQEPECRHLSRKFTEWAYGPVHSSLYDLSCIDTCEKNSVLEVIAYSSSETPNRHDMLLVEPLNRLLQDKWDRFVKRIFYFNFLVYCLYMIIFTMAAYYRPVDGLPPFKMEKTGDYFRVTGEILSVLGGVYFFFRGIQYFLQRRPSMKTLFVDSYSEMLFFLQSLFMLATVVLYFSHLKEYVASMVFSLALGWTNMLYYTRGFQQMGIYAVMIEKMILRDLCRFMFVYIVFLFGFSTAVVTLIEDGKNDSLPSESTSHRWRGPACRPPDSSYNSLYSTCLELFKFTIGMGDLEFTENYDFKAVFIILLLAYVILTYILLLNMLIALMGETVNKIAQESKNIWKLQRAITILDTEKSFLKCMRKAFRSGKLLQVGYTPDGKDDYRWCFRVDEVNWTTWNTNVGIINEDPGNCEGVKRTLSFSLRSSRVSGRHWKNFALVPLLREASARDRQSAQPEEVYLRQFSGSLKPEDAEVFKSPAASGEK
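TRPV1-expressing cells were cultured overnight at 35.5C and loaded with Fluo-8 calcium dye for 40 to 90 min at room temperature. After a 10 s baseline, compound was added and calcium influx was read kinetically for 3 min (ex 480/em 520 nm).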
ClpP mod = qHTS Assay for Activators of ClpP; ATP-dependent Clp protease proteolytic subunit (Bacillus subtilis (strain 168)), P80244; purified B. subtilis ClpP, FRET peptide cleavage, 20 min; Potency, µM (titrated, usually from 57.5 µM), inactives show at the top dose activity change, negative = active; 1.9% of 340,000 active; active = well fitted falling curve with a large enough effect; inconclusive = small, poorly fitted or top-dose-only effect; inactive = no such curve, though single readings can be large or run the other way; also: potency is read from the fitted curve at half-maximal effect; the source files actives as falling curves though it sought activators and does not explain the sign; nearly all actives have a fitted effect of over 65% in size; many hits overshoot -100%
Target sequence (P80244 whole entry, looked up): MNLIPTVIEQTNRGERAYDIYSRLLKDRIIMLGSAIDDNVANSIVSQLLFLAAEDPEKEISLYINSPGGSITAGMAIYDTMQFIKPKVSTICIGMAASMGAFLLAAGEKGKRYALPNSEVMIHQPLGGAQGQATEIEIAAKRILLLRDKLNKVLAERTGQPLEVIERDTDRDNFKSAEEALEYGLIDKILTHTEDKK
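FRET quenching reversal measured ClpP activation: 10 microg/mL B. subtilis ClpP at pH 8 with the FRET-FV decapeptide, read at 430 nm after 320 nm excitation. The 20-min minus 0-min signal was scaled between DMSO/no-enzyme wells and ADEP (5.8 microM final).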
Sfp PPTase inh = inhibitors of Bacillus subtilis Sfp phosphopantetheinyl transferase; Biochemical Sfp PPTase activity, qHTS; Potency, µM, inactives show max response, negative = inhibition, most hits filed as inhibitors; 3.5% of 310,000 active; AID 1490; active = well fitted inhibition curve with a large enough effect; inconclusive = small, poorly fitted or top-dose-only effect, or another doubt; inactive = no such curve, though single readings can be large or run the other way;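 also: the enzyme is Sfp with the accession as filed and its product quenches rhodamine fluorescence; potency is read from the fitted curve at half-maximal effect; 0% = enzyme reaction without inhibitor and -100% = no enzyme wells; top concentration of the series not given in the record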
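Compounds were incubated with enzyme (final 15 nM) for 15 min at room temperature before substrate addition started the reaction. Fluorescence at 525 nm excitation, 598 nm emission was recorded immediately and after 30 minutes.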
Menin MLL FP FL = menin-MLL binding inhibition, fluorescein peptide; Fluorescence polarization, fluorescein-MLL peptide displacement from menin; FP activity change, % at 61.4 µM; 290,000 tested, under 10 active; inconclusive = falling polarisation curve, or a change in total fluorescence; inactive = total fluorescence flat and polarisation flat or rising; no compound was filed as active; the % refers to the polarisation; negative = inhibition;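 also: % of control where 0% means no effect; inhibitors lower the polarisation; unlabelled MLL peptide was the positive control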
gsp ag = gsp mutant agonism; 0.13% of 340,000 active; AID 624287; gsp mutant cells, cAMP HTRF, 30 min; control for the full effect not named in the record; Potency, µM (top dose mostly 76.9 µM), for the others: at the top dose activation (cAMP increase), most hits filed as activators; active = well fitted activation curve with a large enough effect; inconclusive = small, poorly fitted or top-dose-only effect, or another doubt; inactive = no such curve, though single readings can be large or run the other way; cell line not stated here;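 also: phosphodiesterase inhibitor Ro 20-1724 added with compounds to block cAMP breakdown; potency is read from the fitted curve at half-maximal effect; nearly all actives have a fitted effect of over 60% in size; about a fifth of the inactives were tested at one dose only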
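Cells in DMEM/10% FBS with G418 were pretreated with compounds in DMSO plus […] (300 uM stock) for 30 min at 37C. cAMP was measured by HTRF (cAMP-d2 plus anti-cAMP antibody-K) after 30 min at room temperature.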
gsp antag = gsp mutant antagonism; gsp-mutant cells, cAMP HTRF, 30 min; control for the full effect not named in the record; Potency, µM (doses to about 76.9 µM), inactives show top-dose activity change, negative = inhibition, usual class: inhibitors; 0.4% of 340,000 active; AID 624288; active = falling curve of any shape with a large fitted effect; inconclusive = falling curve, mostly with a smaller effect; inactive = flat or rising curve; cell line not stated here;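 also: intracellular cAMP measured with PDE inhibitor Ro 20-1724 present during compound exposure; potency is read from the fitted curve at half-maximal effect; % is scaled to controls: 0 for no effect and ±100 for the full control effect; nearly all actives have a fitted effect of over 65% in size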
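Measurement of cellular cAMP by homogeneous time-resolved fluorescence following a 30 min compound exposure at 37C. The PDE inhibitor […] was present throughout; the assay buffer was DPBS with 0.05% BSA and 0.005% Tween 20.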
D2 potentiator = potentiates the human D2 dopamine receptor allosterically; potentiation, % (test concentration not listed); 0.23% of 360,000 active; AID 624464; DiscoveRx D2 beta-arrestin cells, luminescence, 90 min; 100% = 57 uM dopamine signal; active = potentiation of 50% or more; inconclusive = 30% to 50%; inactive = 30% or less;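 also: compound concentration not given in the record; tested on top of an EC20 dose of dopamine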
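D2 cells co-treated with compound plus 50 nM dopamine (EC20) for 90 min at 37 deg C to detect potentiation. Beta-arrestin recruitment was read as enzyme-fragment luminescence after 1 h at ambient temperature. Full response was set by 57 uM dopamine.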
* hit, by the source's call; ? = inconclusive; / = not tested or not shown; & = joins results of further samples; [ ] = another dose, or the depositor's remark.

SMILES	TRPV1 PAM	ClpP mod	Sfp PPTase inh	Menin MLL FP FL	gsp ag	gsp antag	D2 potentiator
O=S(=O)(c1ccccc1F)N1CCN(CC(O)c2ccccc2)CC1 (stereo not given)	15.9	/	27.1%	-4.4	-7.3%	0.9%	-3.1
O=C(NCC1CCCO1)c1cc2ccccc2oc1=O (stereo not given)	3.7	/	4.7%	-2.1	-9.1%	6.3%	-1.5
O=C(O)/C=C\c1cccc(-n2cnnn2)c1	5.0	-3.3%	7.8%	2.3	1.9%	7.3%	-8.5
O=C1C2ON(c3ccccc3)C(c3ccccc3F)C2C(=O)N1c1ccccc1 (stereo not given)	5.2	2.6%	-0.1%	-1.4	-0.8%	-7.3%[15.4 µM]	-9.0
COc1ccc(OC)c(NC(=O)CNC(=O)c2cccs2)c1	11.5	1.1%	7.8%	-0.4	32.7%	4.3%	-0.2
O=C(N/N=C\c1cccs1)c1ccccc1-n1cccc1	1.6	/	1.1%	-3.3	4.4%[15.4 µM]	/	-6.9
CN(C)C(CNC(=O)CN1C(=O)NC2(CCCC2)C1=O)c1ccccc1 (stereo not given)	-6.3	0.2%	/	/	14.6%	11.1%	-3.0
N/C(=N\OC(=O)Nc1cccc(C(F)(F)F)c1)c1ccno1	-2.7	0.7%	11.0%	-0.6	-35.9%[inhibitor]	1.2%	-1.4
CC1CCC(NC(=O)c2cc3ccccc3cc2O)CC1 (stereo not given)	-4.5	-9.1%	/	/	-4.0%	-9.9%	-6.5
c1ccc2c(c1)[nH]c1nc(SCCN3CCOCC3)nnc12	-1.3	-2.7%	4.47µM*	2.3	?	4.8%	2.2
O=C(NCCc1c[nH]c2ccccc12)OCCCCOC(=O)NCCc1c[nH]c2ccccc12	?	-3.1%	/	/	/	?	9.8
Cc1ccc(C(=O)N2CCN(C)CC2)cc1[N+](=O)[O-]	5.3	0.7%	9.6%	-1.0	-13.8%	12.6%	-4.4
CCc1nccn1CCC(=O)N1CCCC(N2CCN(c3ccccc3C)CC2)C1 (stereo not given)	7.4	-1.8%	11.2%	1.9	-73.6%[inhibitor]	2.8%	-16.0
CCOC(=O)Cc1csc(NC(=O)CSc2nnc(-c3ccc(OC)cc3)n2C)n1	-0.8	1.8%	-8.9%	-3.3	5.0%	-5.8%	-1.7
Cc1nnc(SC(C)C(=O)Nc2ccc(Cl)cn2)n1Cc1ccccc1 (stereo not given)	3.8	0.2%	8.1%	-0.3	-9.9%	3.1%	-16.0
Cn1c(=O)c(=O)n(C)c2cc([N+](=O)[O-])c([N+](=O)[O-])cc21	-7.7	/	5.4%	2.9	6.4%[15.4 µM]	-32.6%	54.0*
O=c1cc(N2CCN(c3ccccc3)CC2)[nH]c(=O)n1Cc1ccc(F)cc1	/	-3.0%	-5.2%	6.0	-14.2%	-3.5%	-2.4
COC(=O)c1cc(OC)c(OC)cc1NC(=S)Nc1cccc(Cl)c1	-1.1	-3.7%	12.5%	7.0	-41.3%[inhibitor]	-7.7%	-1.2
CC(=O)Nc1ccc(-c2nc3c(C)cccc3[nH]2)cc1	3.0	?	12.0%	8.6	-35.9%[inhibitor]	-4.9%	-3.0
C=CCn1c(NCc2ccco2)nc2ccccc21	?	0.2%	23.4%	0.6	-8.5%	9.3%	-3.2
c1ccc(-c2nnc(CN3CCN(C(c4ccccc4)c4ccccc4)CC3)o2)cc1	-11.7	-3.8%	-1.7%	4.7	?	-10.6%	-11.5
Cc1cccc(N2CCN(C(=S)c3ccc4c(c3)OCO4)CC2)c1	/	/	/	/	-31.7%[inhibitor]	14.0%	-7.6
Cc1sc(NC(=O)c2ccccc2F)c(CN2CCCCC2)c1C	-14.9	7.8%	-5.0%	/	3.3%[15.4 µM]	3.1%	-20.2
CC(c1ccc(F)cc1)n1c(Cn2ncc3ccccc3c2=O)n[nH]c1=S (stereo not given)	-3.2	/	8.5%	-2.6	24.4%[15.4 µM]	/	-4.9
Cc1ccc(C)c(-n2cc(CNCCCn3cccn3)c(-c3ccccc3)n2)c1	-20.1	/	-22.1%	-3.9	-32.0%[15.4 µM]	0.7%	-5.4
CC1=CC2=C(C=O)C(=O)C(C)(O)C(O)C2=CO1 (stereo not given)	/	27.6%	/	/	10.8%	/	-3.3
COc1ccccc1CC1CC(=O)N(c2ccccc2)C1=O (stereo not given)	6.2	0.6%	0.6%	-2.1	-26.2%	-13.9%	-0.1
Cc1nn(C)c(C)c1/C=C/C(=O)c1cccs1	/	-12.2%	/	/	-72.2%[inhibitor]	-12.5%	1.0
O=C(CSc1nnc(CNC(=O)c2cccs2)o1)Nc1ccc(Br)cc1	21.9	0.0%	2.5%	/	-25.0%	-7.6%	-13.7
Cc1ccsc1C1Nc2ccccc2-c2nc3ccccc3n21 (stereo not given)	-2.3	73.7%	-27.1%	9.9	-3.4%	-10.1%	-1.9
CCOc1ccc(C(c2nnnn2C(C)(C)C)N2CCN(C(=O)c3ccco3)CC2)cc1 (stereo not given)	1.3	/	-3.6%	/	3.6%[15.4 µM]	-1.8%	-4.0
Cc1ccsc1C(=O)OCC(=O)N1CCN(c2ccccc2)CC1	/	/	/	/	5.0%	-10.1%	-4.7
COc1ccc(OC)c(-c2csc(NC(=O)Cc3ccc(OC)c(OC)c3)n2)c1	5.0	/	4.3%	3.1	-0.8%[15.4 µM]	?	-3.2
Cc1c(C)c2ccc(OC(C)C(=O)N3CC[C@@]4(O)CCCC[C@H]4C3)cc2oc1=O (stereo not given in full)	2.3	4.3%	15.2%	-1.0	/	-14.3%	-1.2
CCOc1ccccc1NC(=O)CNC(=O)N1CC(=O)Nc2ccccc21	9.9	0.5%	14.4%	/	22.2%	-17.8%	-10.6
Cc1nnsc1C(=O)N1CCC(CO)(Cc2ccccc2Cl)CC1	-5.9	/	18.4%	-5.7	2.1%[15.4 µM]	-4.1%	-2.4
CCCCOC(=O)c1cccc(NC(=O)CCC(=O)O)c1	6.9	-2.8%	19.0%	1.8	-14.0%	-14.6%	-2.6
COC(=O)n1c(=O)oc2ccccc21	-1.3	2.2%	10.0%	2.6	1.7%	7.9%	4.9
c1ccc(CCc2nn3c(Cn4nnc5ccccc54)nnc3s2)cc1	-3.0	0.3%	12.6µM*	1.0	12.9%	-8.3%	-9.3
C=C(Br)Cn1c(CC(C)C)nc2ccccc21	-2.4	-7.4%	9.1%	0.5	-7.8%	-5.4%	-6.5
CCn1c2ccc(OC)cc2c2nc3ccccc3nc21	5.6	-5.0%	9.4%	-21.0	?	11.1%	-11.9
O=C(NN1C(=O)/C(=C/c2cccc(O)c2)SC1=S)c1ccccc1O	-0.6	-6.5%	-0.4%	1.4	-19.9%	-22.5%	-0.9
CCn1c(/C=C2/C(=O)N(C)c3ccccc32)nc2ccccc2c1=O	19.5	-0.5%	-28.8%	0.2	-46.5%	-14.6%	2.6
CCc1ccc(Nc2nnc(SCC(=O)c3c(N)n(C4CC4)c(=O)[nH]c3=O)s2)cc1	-2.2	0.8%	/	/	-16.5%	-14.7%	-0.1
O=C(COc1ccccc1[N+](=O)[O-])Nc1cc(C(=O)O)cc(C(=O)O)c1	8.5	/	22.2%	-5.6	-1.6%	10.4%	-4.8
CS(=O)(=O)N(CC(=O)O)c1cc(Cl)cc(Cl)c1	?	-0.1%	16.9%	-2.7	-5.1%	-3.4%	-8.6
COc1ccccc1C(=O)N1CCC(C(=O)c2ccc(F)cc2)CC1	-10.0	1.4%	6.8%	-1.2	-21.4%	-7.2%	-14.4
Cn1nnnc1SCCNCc1cc(Cl)ccc1OCc1ccccc1	-5.8	0.8%	-1.0%	0.5	-41.2%[inhibitor]	-14.2%	-32.2
O=C(Nc1ccc(Cl)cc1)C1CCCC1	-27.2	1.2%	12.2%	-1.0	-25.1%	-1.0%	-1.4
COc1cccc(C(C(=O)NC2CCCCC2)N(C(=O)c2ccccn2)c2cccnc2)c1 (stereo not given)	13.3	/	0.8%	0.7	-9.7%[15.4 µM]	/	-15.6
CCOc1ccc2c(c1)c1nnc(SCC(=O)N3CCCCC3C)nc1n2C (stereo not given)	-17.8	2.5%	7.2%	3.2	16.1%	-3.3%	-16.5
CCOc1ccc(S(=O)(=O)NCCC(=O)OCC(=O)NC(=O)c2cccn2C)cc1	/	-11.4%	/	/	-2.9%[15.4 µM]	-6.5%	0.2
COc1ccccc1-c1noc(-c2ccccc2C(=O)NCc2ccco2)n1	16.8	/	-4.8%	-2.8	?	2.8%	8.3
CCCC(=O)NC(=S)Nc1cccc(NC(=O)c2ccc(Cl)cc2Cl)c1	6.3	-2.9%	2.0%	0.3	7.4%	-2.8%	-7.9
COC(=O)c1ccccc1NC(=O)Cn1nnc(-c2ccc(OC)cc2)n1	?	-2.1%&-2.5%	-13.0%	-1.6	0.5%	-10.5%	-1.7
O=C(COC(=O)COc1ccccc1Cl)Nc1ccccc1OC(F)F	0.0	-0.6%	6.2%	0.2	-25.4%	2.4%	2.0
CC(=O)c1ccc(NC(=O)/C(Cl)=C/c2ccccc2)cc1	9.8	/	0.8%	1.8	2.8%[15.4 µM]	-2.7%	-8.3
CCN(CC)CC(=O)c1c(N)n(Cc2ccccc2)c(=O)n(C)c1=O	11.0	/	27.4%	2.9	20.0%[15.4 µM]	-5.9%	-3.9
CC1=C(C(=O)OCC2CCCO2)C(c2ccc(Cl)c(Cl)c2)NC(=O)N1 (stereo not given)	2.1	/	-6.4%	0.4	?	2.2%	4.0
Cc1ccc(F)cc1CNC(=O)C1CCC(=O)N(CCCN2CCCC2=O)C1 (stereo not given)	4.9	-3.4%	6.4%	/	17.8%[15.4 µM]	11.4%	-20.9
O=S(=O)(c1ccc(-c2nc3ccccc3s2)cc1)N1CCCC1	-0.5	-17.4%	5.4%	0.7	19.9%	13.4%	-10.0

3 entries out of the list, arranged by number of heavy atoms, falling.
SMILES	TRPV1 PAM	ClpP mod	Sfp PPTase inh	Menin MLL FP FL	gsp ag	gsp antag	D2 potentiator
CCOC(=O)Cc1csc(NC(=O)CSc2nnc(-c3ccc(OC)cc3)n2C)n1	-0.8	1.8%	-8.9%	-3.3	5.0%	-5.8%	-1.7
O=C(COC(=O)COc1ccccc1Cl)Nc1ccccc1OC(F)F	0.0	-0.6%	6.2%	0.2	-25.4%	2.4%	2.0
Cc1cccc(N2CCN(C(=S)c3ccc4c(c3)OCO4)CC2)c1	/	/	/	/	-31.7%[inhibitor]	14.0%	-7.6

Screening data deposited in PubChem by National Center for Advancing Translational Sciences (NCATS).
